Screening results deposited in PubChem by ICCB-Longwood Screening Facility, Harvard Medical School.
CapD inh – Bacillus anthracis CapD inhibitors, primary screen, biochemical, fluorescence intensity; z-score (no concentration beside the values); AID 492967, 2010; purified CapD enzyme, fluorescence intensity read-out; active compounds read low; some hits fall short of the stated cut; hit rate 0.23% among 140,000;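 active means z-score under -4 in either of two replicates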;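 further: stock transfer was 100 nL into about 40 µL; score is relative to mean and spread of the plate; one replicate is shown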
AID504770 – growth inhibition of E. coli YBA685, primary screen, V. cholerae RctB inhibitors; E. coli YBA685 rctB-dependent plasmid, OD600 growth, 3 h; active compounds read low; z-score (concentration not given with the values); hit rate 0.27% among 130,000; AID 504770, 2011;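 active means z-score under -2 on both plates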;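 further: wells of about 30 µL received 100 nL stock; score is relative to mean and SD of the test wells; the first replicate is given; strong numbers were not always called active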
* marks the source's active call; other numbers are inactive results; · = not tested or not shown; & = joins results of further samples.

SMILES	CapD inh	AID504770
CCOC(=O)C1(O)CC(CC)=NN1C(=O)c1cccc(Br)c1 (stereo not drawn)	-0.6	·
O=[N+]([O-])c1ccc(Sc2ccccn2)nc1	-2.7	·
COc1ccc(NC(=O)Nc2ccc(N3CCOCC3)cc2)cc1	1.1	-0.05
CC1(C)C2CCC1(C)C(O)C2CC(=O)NNC(=O)c1cnn(-c2ccc([N+](=O)[O-])cc2)c1C(F)(F)F (stereo not drawn)	-0.48	·
COC(=O)CSc1nc(C)nc2c1c(=O)n(C)c(=O)n2C	0.34	-0.25
COc1cccc(CNc2ccc(N3CCCCC3)cc2)c1OC	2.2	-0.3
Cc1sc(NC(=O)Nc2ccccc2)c(C(N)=O)c1C	·	0.9
CC(=O)N1c2ccccc2NC2=C(C(=O)CC(c3ccccc3F)C2)C1c1ccccc1 (stereo not drawn)	20	-0.75
CCOc1ccc(NC(=O)C(=O)NCCN2CCN(Cc3ccc(F)cc3)CC2)cc1	2	·
CC(C)Cn1c(CN(Cc2ccccc2)Cc2ccccc2)nc2c1c(=O)[nH]c(=O)n2C	1.7	-0.45
CC(C)/C=C1\CC/C(=C\c2ccc(N(C)C)cc2)C1=O	-0.02	0.95
Cc1cn(C(=O)c2ccc(Cl)cc2Cl)c(C)n1	0.13	-0.7
COc1ccc2nc(Cl)c(CNC3CCCC3)cc2c1	·	-0.25
Cc1c2c(=O)n(-c3ccccc3)[nH]c2cc(=O)n1CCc1ccccc1	-0.17	2.4
Cc1cc(C)n(CC(C)O)c(=O)c1C#N (stereo not drawn)	·	-0.25

Part of the list above, with two lines to a compound:
Every second line gives: CapD inh | AID504770
Cc1sc(NC(=O)Nc2ccccc2)c(C(N)=O)c1C
  · | 0.9
CC(=O)N1c2ccccc2NC2=C(C(=O)CC(c3ccccc3F)C2)C1c1ccccc1 (stereo not drawn)
  20 | -0.75
CCOc1ccc(NC(=O)C(=O)NCCN2CCN(Cc3ccc(F)cc3)CC2)cc1
  2 | ·
CC(C)Cn1c(CN(Cc2ccccc2)Cc2ccccc2)nc2c1c(=O)[nH]c(=O)n2C
  1.7 | -0.45
CC(C)/C=C1\CC/C(=C\c2ccc(N(C)C)cc2)C1=O
  -0.02 | 0.95

Single records (already shown):
Record of Cc1cn(C(=O)c2ccc(Cl)cc2Cl)c(C)n1 → CapD inh = 0.13; AID504770 = -0.7
Record of CC(=O)N1c2ccccc2NC2=C(C(=O)CC(c3ccccc3F)C2)C1c1ccccc1 (stereo not drawn) → CapD inh = 20; AID504770 = -0.75
Record of COc1cccc(CNc2ccc(N3CCCCC3)cc2)c1OC → CapD inh = 2.2; AID504770 = -0.3

The list continues.
SMILES	CapD inh	AID504770
c1nc(N2CCC3(CC2)OCCO3)c2[nH]cnc2n1	-0.53	-1.1
COc1cccc(C(=O)NCCCn2ccnc2)c1	·	0.85
Cc1cc(Cl)ccc1OCC(=O)NCCOc1nc(N(C)C)nc(N2CCOCC2)n1	-0.15	0.2
O=C(NC(C(=O)NC1=NCCS1)C12CC3CC(CC(C3)C1)C2)C1CCCCC1 (stereo not drawn)	0	-0.6
C=CCNC(=O)c1ccccc1NC(=O)CN1C(=O)c2cccc3cccc1c23	-0.14	-1.8
O=C(CCCN1C(=O)/C(=C\c2ccco2)SC1=S)Nc1ccc(Cl)cc1	-1.4	0.8
CC1(C)CC(=O)C2(CNC3=C(C2)C(=O)CC(C)(C)C3)C(=O)C1	0.53	-0.65
O=C(Nc1ccc(-c2ccc(Br)cc2)oc1=O)c1ccccc1	1.3	·
Cc1ccc2nc(NN)nc(-c3ccccc3)c2c1	·	0.1
Cc1cc(C)c2c(c1)c(-c1ccccc1)c(-c1ccccc1)n2CC(O)Cn1nc(C)cc1C (stereo not drawn)	33	·
N#CC1(C#N)[C@H](c2ccccc2)[C@@H](C(=O)c2ccc(Cl)cc2)N2c3ccc(Cl)cc3C=C[C@@H]21	0.12	·
CCOc1ccc(N2C(=O)/C(=C/c3ccc(OCC(=O)OC)c(OC)c3)C(=O)NC2=S)cc1	0.22	·
CC1CC1C(=O)OCC(=O)c1ccc(Br)cc1 (stereo not drawn)	-0.18	0.75
CN1CCN(NC(=O)CN2C(=O)S/C(=C/c3ccc(Cl)cc3)C2=O)CC1	-0.59	-0.3
CCOc1cccc(CO)c1OCc1ccccc1	·	-1.1
CC1CS(=O)(=O)CCO1 (stereo not drawn)	0.38	-0.4
COc1ccc(C2=NOC(C(=O)N(C)c3ccccc3)C2)cc1OC (stereo not drawn)	0.24	0.8
CSc1ccc(S(=O)(=O)N2CCC(C(=O)N(C)C)CC2)cc1	·	2.2
CC12CCC(C/C1=N\N=C1/NC(=O)C(CC(=O)NC(N)=O)S1)C2(C)C (stereo not drawn)	·	-0.4
COc1cc(CO)cc(-c2cc(CO)cc(OC)c2OC)c1OC	-0.09	1
CC(=O)Nc1ccccc1C(=O)OCc1nnc(-c2ccccc2)o1	13	-0.2
Nc1nc(N2CCCC2)ncc1S(=O)(=O)c1ccc(Cl)cc1	1.3	-0.75
Cc1cc(/C=C2\C(=O)NC(=S)N(c3cccc(Cl)c3)C2=O)c(C)n1-c1cc(C(=O)O)cc(C(=O)O)c1	-5.9*	·
CCN(CC)CCNc1nc2ccc(Cl)cc2[nH]1	0.25	-0.05
CC12CCC3C4CCCC=C4CCC3C1CCC2=O (stereo not drawn)	-0.2	·
O=C1CCCCC1Sc1nnc(Nc2ccccc2)s1 (stereo not drawn)	·	0.05
COc1ccc(NC(=O)C2CCCN(S(=O)(=O)c3ccc(Br)s3)C2)cc1Cl (stereo not drawn)	14	-0.8
CC(=O)/C(C#N)=C(\N=C\N(C)C)SCc1c(Cl)cccc1Cl	-0.71	-0.6
O=CNc1ncc(-c2nc3ccccc3[nH]2)s1	42	0.7
COc1cccc(C(=O)N/N=C/c2ccc(C)c([N+](=O)[O-])c2)c1	0.3	·

Fetched one by one from above (two):
SMILES	CapD inh	AID504770
CC12CCC3C4CCCC=C4CCC3C1CCC2=O (stereo not drawn)	-0.2	·
COc1ccc(NC(=O)C2CCCN(S(=O)(=O)c3ccc(Br)s3)C2)cc1Cl (stereo not drawn)	14	-0.8

(listing goes on)
SMILES	CapD inh	AID504770
O=C(c1ccc2ncccc2c1)N1CCOCC1	-0.32	-0.65
Clc1ccc2nnn(OCCOc3ccc(Br)cc3)c2c1	·	-1.4
CCCCNC(=O)Cn1c(=O)cc(C)c2c(C)nn(-c3cccc(F)c3)c21	0.02	0.5
COc1ccc(-c2nn(C)c3sc(C(=O)NCCN4CCN(c5ccccc5F)CC4)cc23)cc1OC	36	-0.2
Cc1cc(C)cc(NC(=O)c2sc3nc(SCc4cccc([N+](=O)[O-])c4)n(CCc4ccccc4)c(=O)c3c2C)c1	-0.41	·
O=C(NCc1cccs1)C1CC1	-0.28	·
N#Cc1ccc(CSc2n[nH]c(=O)n2CCc2ccccc2)cc1	·	0.45
CCOCc1[nH]c(=S)[nH]c(=O)c1Cc1ccc(OCC)cc1	·	-0.4
O=C1c2cccc3cccc(c23)C(=O)N1CC1CCN(CC(O)COc2ccc(Cl)cc2)CC1 (stereo not drawn)	4.8	·
COC(=O)CNC(=O)c1ccc(COC(C)=O)cc1	·	-1.1
Cc1cccc(-c2cc(N)n(-c3ccccc3)n2)c1	·	0.4
N#CCN(CC#N)C(=O)C1c2ccccc2Oc2ccccc21	·	-0.2
COc1ccc(C(=O)N(CCCCN2C(=O)c3ccccc3C2=O)c2ccc(C)cc2)cc1	8.7	-0.95
O=C(Nc1ccc(F)cc1)c1ccc(=O)n(Cc2ccc(Cl)c(Cl)c2)c1	-0.38	·
CC(C)(C)C(C(Oc1ccc(Cl)cc1)n1cncn1)n1nnnc1C1(N)CCCCC1 (stereo not drawn)	5.9	·
Fc1ccc(C2=CC(c3ccc(Cl)cc3)n3c(nc4ccccc43)N2)cc1 (stereo not drawn)	0.08	·
NS(=O)(=O)c1ccc(C(=O)N/N=C/c2cccc(OCc3ccccc3)c2)cc1	-0.05	·
CC1=C(C#N)/C(=C/Nc2ccc(F)cc2)CC(=O)N1	-0.21	0
O=C(Nc1cccc(-c2nn3cnnc3s2)c1)c1cccnc1	·	-1.2
COc1ccc(/C=N/c2nnc(SC)s2)c(O)c1	0.085	-1.4
O=S(=O)(NC1CCN(Cc2ccccc2OCc2ccccc2)C1)c1ccccc1Br (stereo not drawn)	0.065	·
OC(c1ccncc1)c1c[nH]c2ccccc12 (stereo not drawn)	-0.57	2.1
CC1CCCC(C)N1C(=O)Cn1cc(/C=C2/C(=O)N(C)c3ccccc32)c2ccccc21 (stereo not drawn)	-0.39	0.05
Cc1ccc(C)n1-n1cnc2scc(-c3ccc(F)cc3)c2c1=O	-0.61	-0.7
O=c1[nH]c(-c2ccccc2)nnc1/C=C(\O)c1cccs1	-0.41	0.25
c1ccc(CN2CCN(Cc3ccccc3)C2c2cccc3ccccc23)cc1	5.8	·
Cc1ccc(O)c(N/C=C2/CCCC2=O)c1	2.6	-0.25
O=C(/C=C/c1ccc(Br)cc1)Nn1c(-c2cccc([N+](=O)[O-])c2)nc2ccccc2c1=O	-0.43	·
Cc1ccc2cc(C(=O)O)c(C)nc2c1	·	-0.55
CC(C)C1NC(=O)c2c(sc3c2CCCC3)N1 (stereo not drawn)	·	-0.1
O=C(Cc1ccc(Br)cc1)Nc1nccs1	-0.055	-0.2
CC(C)Oc1ccccc1Oc1ccc(N)cn1	10	·
CCN(c1ncnc2c1cnn2-c1cccc(Cl)c1)C1CCCCC1	·	1.7
COc1ccc(CCn2c(=S)[nH]c3cc(C(=O)N4CCOCC4)ccc3c2=O)cc1OC	0.1	-0.6
O=C(Nc1ccc(N=Cc2ccco2)cc1)c1ccccc1O	0.27	0.7
CCN(CC)S(=O)(=O)c1cccc(C2=N/C(=C\c3c(C)nn(-c4ccccc4)c3N3CCCC3)C(=O)O2)c1	·	-2.2
COc1ccc(C(=O)NCC(N)=O)cc1	0.055	0.75
S=c1nc(NC2CCCCC2)cn[nH]1	·	0.25
CC(=O)Nc1ccc2c(c1)CCCC2=O	-0.075	·
CCOC(=O)C1=C(C)NC(C)=C(C(=O)OCC)C1	6.8&0.65	-0.7
CC1CCN(S(=O)(=O)c2ccc3[nH]cc(C(=O)O)c(=O)c3c2)CC1	2.1	·
CCc1ccc(N/C(SCc2cccc([N+](=O)[O-])c2)=C(/C#N)C(N)=O)cc1	-0.31	·
O=C(Nc1nn(Cc2c(F)cccc2Cl)cc1Br)C1CCCO1 (stereo not drawn)	0.04	-0.35
Cn1nc(SCC(=O)n2c3c(c4ccccc42)CCCC3)sc1=S	-0.11	-0.65
CCc1nnc(NC(=O)c2ccc(S(=O)(=O)N(C)c3ccccc3)cc2)o1	-0.23	·

Part of the list above, set out differently.
> CC(=O)Nc1ccccc1C(=O)OCc1nnc(-c2ccccc2)o1
  CapD inh: 13	AID504770: -0.2
> COc1ccc(CCn2c(=S)[nH]c3cc(C(=O)N4CCOCC4)ccc3c2=O)cc1OC
  CapD inh: 0.1	AID504770: -0.6

Carrying on:
SMILES	CapD inh	AID504770
C=CCOc1ccc(/C=C2/SC(N3CCN(C(C)=O)CC3)=NC2=O)cc1	-1.3	·
Cc1nn(-c2ccccc2)c2sc(C(=O)N3CCN(C)CC3)cc12	·	1.5
COc1ccc(NC(=O)c2cc3cccc(OC)c3oc2=Nc2ccc(C(=O)O)cc2)cc1OC	-0.29	·
O=C(c1ccco1)N(C(=O)c1ccco1)c1c(Cl)cc(Cl)c2cccnc12	0.01	0
CCOC(=O)C1(C)/C(=N\Nc2cccc(Cl)c2)C(=O)C(=O)N1c1ccccc1 (stereo not drawn)	-0.49	·
CCC(C)NC(=O)c1ccccc1-c1nc2ccccc2[nH]1 (stereo not drawn)	0.18	0.3
CN(C)c1ccc(NC(=O)Cn2c(-c3ccccc3F)nc3ccccc3c2=O)cc1	0.11	·
CN=C1c2c(C)c3cc(OC)ccc3n2CCN1C	4.6	0.5
O=C(CSc1ccccc1)Nc1cccc(O)c1	0.45	-0.85
C=CCN=c1scc(-c2ccco2)n1/N=C/c1cccs1	·	-0.15
COc1ccc2[nH]c(C(=O)N3CCCN(C(=O)c4cccs4)CC3)cc2c1	22	-0.1
